Screening data as filed in PubChem BioAssay.
rRNA inh HTS: inhibits bacterial ribosomal RNA function over humanized ribosomes | E. coli WT GFP vs humanized-ribosome RFP mutants, fluorescence, 24 h; hits give low values; DMSO median 0, no signal -100 | GFP signal change (wild-type ribosome), % (no concentration beside the values) | 1.6% of 350,000 active | AID 720706;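 active means significant combined selectivity score with lowered wild-type GFP, culture density cut under 30%, mutant RFP and density less affected; inactive means any of these conditions unmet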; further: one replicate is shown; some compounds called inactive have numbers as strong as hits
FGF22 binding: binders of recombinant human FGF22 by thermal shift | Q9HCT0 | SYPRO orange fluorescence; percent of sucrose octasulfate shift, DMSO zero | calls only at 9.99 µM | 1.5% of 340,000 active | AID 651658;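 active means melting point raised past a set limit in the mean and every replicate; inconclusive means no clear call; three in four hits are not shown here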
Target sequence (Q9HCT0 whole entry, looked up): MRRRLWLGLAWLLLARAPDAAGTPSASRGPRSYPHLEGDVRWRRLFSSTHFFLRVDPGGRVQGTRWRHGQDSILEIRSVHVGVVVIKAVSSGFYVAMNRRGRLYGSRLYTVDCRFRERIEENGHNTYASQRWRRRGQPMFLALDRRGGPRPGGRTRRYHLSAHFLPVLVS
T cruzi inh: blocks replication of Trypanosoma cruzi; T. cruzi beta-gal in NIH3T3, luminescence, 90 h; inhibition, % (concentration not given with the values); 1.4% of 300,000 active; AID 1885;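 active means mean inhibition across valid replicates above about 55%, limit read from the data; inconclusive means mean below that limit but half or more replicates reach it; inactive means mean below it, under half of replicates reach it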;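 further: signal also drops with host cell toxicity which is not excluded here; 0% = plate median of DMSO wells and 100% = zero luminescence signal; higher percent means less beta-gal luminescence so fewer parasites; stock transfer was 50 nL into about 50 µL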
Calb FLC: affects C. albicans growth with fluconazole. 0.57% of 300,000 active. growth inhibition, % (no concentration beside the values). C. albicans CaCi-2 (fluconazole-resistant clinical isolate) + fluconazole, Alamar Blue growth, 48 h;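 active means most replicates above 75%; inconclusive means exactly half above 75%; inactive means most below 75%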;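 further: all wells also contain fluconazole at 8 µg/ml as a sub-toxic cotreatment; 0% = median of DMSO wells and 100% = median of geldanamycin control wells; wells of about 8 µL received 7.5 nL stock; the first replicate is given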
Beta cell apopt: blocks beta cell apoptosis; AID 435005; 0.8% of 300,000 active; protection from apoptosis, % (no concentration beside the values); INS-1E cytokine-induced death, ATP luminescence, 48 h; percent of positive-control rescue, neutral wells zero;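 active means all replicates at 75% or more, or half of them and the mean; inconclusive means half reach 75% but not the mean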;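 further: 0% = cytokine-treated negative control wells and 100% = positive control rescue; higher means more ATP so stronger rescue from cytokine killing; wells of about 40 µL received 100 nL stock; the first replicate is given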
ALR H2O2 inh: inhibitors of human sulfhydryl oxidase ALR; 3.8% of 290,000 active; inhibition, % (no concentration beside the values); purified ALR, DTT oxidation, H2O2 HRP-luminol luminescence; P55789; AID 485317;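 active means mean and each replicate at 75% or more; inconclusive means only one of the two met; inactive means neither met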;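 further: stock transfer was 7.5 nL into about 7.5 µL; 0% = neutral wells and 100% = wells with inactivated enzyme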
Target sequence (P55789 whole entry, looked up): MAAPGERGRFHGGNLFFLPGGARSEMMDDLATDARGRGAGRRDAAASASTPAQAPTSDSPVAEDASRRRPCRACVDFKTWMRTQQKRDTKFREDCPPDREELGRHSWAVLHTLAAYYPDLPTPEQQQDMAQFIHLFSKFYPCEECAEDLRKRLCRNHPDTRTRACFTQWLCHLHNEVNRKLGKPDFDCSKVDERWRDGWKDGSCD
MLL AF4-AF9 inh: blocks AF4 peptide binding to human AF9 | P42568 | AlphaScreen, biotin-AF4 peptide binding to FLAG-AF9 | inhibition, % at 10 µM | 0.47% of 350,000 active;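 active means every replicate reaching a set inhibition limit, whatever the replicate mean, cut at about 25% in these data; inconclusive means mean inhibition reaches that limit but some replicates miss it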;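 further: 0% = plate neutral control median and 100% = total signal loss; the record names both 10 and 1 µM as test concentration; the first replicate is given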
Target sequence (P42568 whole entry, looked up): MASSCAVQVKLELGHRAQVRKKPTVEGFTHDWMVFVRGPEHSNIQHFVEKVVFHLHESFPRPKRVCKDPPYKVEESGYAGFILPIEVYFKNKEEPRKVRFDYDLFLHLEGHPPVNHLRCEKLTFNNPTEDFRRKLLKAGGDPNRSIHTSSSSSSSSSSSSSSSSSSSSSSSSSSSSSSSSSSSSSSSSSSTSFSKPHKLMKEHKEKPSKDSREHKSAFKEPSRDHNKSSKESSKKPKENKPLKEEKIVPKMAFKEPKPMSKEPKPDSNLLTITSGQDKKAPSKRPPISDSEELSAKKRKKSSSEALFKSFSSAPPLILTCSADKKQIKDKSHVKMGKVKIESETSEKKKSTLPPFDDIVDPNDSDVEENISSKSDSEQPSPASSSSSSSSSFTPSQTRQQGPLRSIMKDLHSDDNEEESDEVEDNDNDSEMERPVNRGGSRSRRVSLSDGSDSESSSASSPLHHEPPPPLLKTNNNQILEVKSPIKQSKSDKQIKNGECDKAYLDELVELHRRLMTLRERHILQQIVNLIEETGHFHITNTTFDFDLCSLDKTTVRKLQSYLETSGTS
RanGTP-Imp inh: disruptors of Ran-importin-beta complex formation – biochemical, FRET, CFP-Ran, YFP-importin-beta, homogeneous, primary screen. cell-free CFP-Ran/YFP-importin-beta FRET ratio. inhibition, % (no concentration beside the values). 1.1% of 300,000 active. AID 2216;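 active means most replicates above 15%; inconclusive means exactly half above 15%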;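 further: 0% = DMSO wells and 100% = Ran loaded with GDP instead of GTP; wells of about 40 µL received 100 nL stock; the first replicate is given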
rRNA inh HTS OD600: second read-out of rRNA inh HTS, no call of its own (marks repeat the call); OD600 change, %; measured here: OD600 growth;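 optical density of the mix in the first replicate; 0 = DMSO median and -100 = no signal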
rRNA inh HTS RFP: recorded beside rRNA inh HTS, whose call it bears; RFP signal change, %; measured here: RFP humanized mutant strains;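 first replicate; 0 = DMSO median and -100 = no signal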
* = called active by the depositor. A portion of the library; the hit share may differ from the screen's.

For CCCCOCC(O)CCc1n[nH]c(=S)n1-c1ccccc1 (stereo not drawn) the results were rRNA inh HTS 30, T cruzi inh -8, Calb FLC -2, Beta cell apopt 3, MLL AF4-AF9 inh -6.3, RanGTP-Imp inh 0.6, rRNA inh HTS OD600 17 and rRNA inh HTS RFP 2.6.
`Cc1csc2ncc(C(=O)NCc3ccccc3Cl)c(=O)n12` gave rRNA inh HTS -7, FGF22 binding inactive, T cruzi inh 16, Calb FLC -4, ALR H2O2 inh 1, MLL AF4-AF9 inh 1.6, RanGTP-Imp inh -2.4, rRNA inh HTS OD600 -11 and rRNA inh HTS RFP -0.5.
Cc1cccc2c1-c1sc(C(=O)N3CCc4ccccc4C3)cc1CO2 was read as rRNA inh HTS -14, FGF22 binding inactive, T cruzi inh -12, Calb FLC -2, Beta cell apopt -4, MLL AF4-AF9 inh -2.6, RanGTP-Imp inh inconclusive, rRNA inh HTS OD600 -16 and rRNA inh HTS RFP 3.6.
For C=CCn1c(COc2ccc(Cl)cc2)nnc1SCC(=O)N1CC(=O)Nc2ccccc21 the results were T cruzi inh 13, Calb FLC 20, Beta cell apopt 3, ALR H2O2 inh -4 and RanGTP-Imp inh 7.1.
Cc1ccc2nc(SC(C)C(=O)N3CCCC3)[nH]c2c1 (stereo not drawn) was read as T cruzi inh -5, Calb FLC -1, Beta cell apopt -4, ALR H2O2 inh -3 and RanGTP-Imp inh -3.1.
Cc1ccc(-c2nnn(CC(=O)N(c3ccccc3)C(C(=O)NC3CCCC3)c3ccco3)n2)o1 (stereo not drawn) was read as T cruzi inh 5, Calb FLC 0, Beta cell apopt 1, ALR H2O2 inh -6 and RanGTP-Imp inh inconclusive.
`COc1cccc(-n2nnc3c(=O)n(CC(=O)Nc4ccc(C)cc4)cnc32)c1` gave rRNA inh HTS -2, FGF22 binding inactive, T cruzi inh -10, Calb FLC -17, Beta cell apopt -1, ALR H2O2 inh -6, MLL AF4-AF9 inh -2.1, RanGTP-Imp inh 1.3, rRNA inh HTS OD600 3 and rRNA inh HTS RFP 2.5.
O=C(CCC(=O)OCC(F)(F)C(F)F)Nc1ccc(F)cc1F was read as rRNA inh HTS 2, FGF22 binding inactive, T cruzi inh -3, Calb FLC 3, Beta cell apopt -2, ALR H2O2 inh -5, MLL AF4-AF9 inh -6.2, RanGTP-Imp inh 8.6, rRNA inh HTS OD600 3 and rRNA inh HTS RFP -4.5.
For CCc1ccc(NC(=O)NNC(=O)CCc2ccccc2)cc1 the results were rRNA inh HTS -1, FGF22 binding inactive, T cruzi inh 6, Calb FLC -1, Beta cell apopt -6, ALR H2O2 inh -10, MLL AF4-AF9 inh -2.3, RanGTP-Imp inh 2.6, rRNA inh HTS OD600 -2 and rRNA inh HTS RFP -3.0.
`COC(=O)c1ccc(NC(=S)NCCCN2CCCC2=O)cc1` gave rRNA inh HTS -5, FGF22 binding inactive, T cruzi inh -9, Calb FLC 19, Beta cell apopt 0, ALR H2O2 inh 1, MLL AF4-AF9 inh -1.7, RanGTP-Imp inh 2.3, rRNA inh HTS OD600 4 and rRNA inh HTS RFP 4.6.
Cc1ccc(C)c(NC(=S)Nc2ccc(S(=O)(=O)Nc3ncccn3)cc2)c1 was read as T cruzi inh 4, Calb FLC -2, Beta cell apopt 0, ALR H2O2 inh -1 and RanGTP-Imp inh -0.1.
`COc1ccc(-c2noc(C3CCCN(C(=O)c4ccccc4OC)C3)n2)cc1` (stereo not drawn) gave rRNA inh HTS -15, FGF22 binding inactive, T cruzi inh 10, Calb FLC 10, Beta cell apopt 5, ALR H2O2 inh 20, MLL AF4-AF9 inh 1.8, RanGTP-Imp inh 2.1, rRNA inh HTS OD600 -20 and rRNA inh HTS RFP -1.9.
Screening COC(=O)c1cc(CSc2ncnc3sccc23)oc1C returned rRNA inh HTS -13, FGF22 binding inactive, T cruzi inh 12, Calb FLC 10, Beta cell apopt 0, ALR H2O2 inh inconclusive, MLL AF4-AF9 inh -0.2, RanGTP-Imp inh inconclusive, rRNA inh HTS OD600 -18 and rRNA inh HTS RFP 0.3.
`CCOC(=O)CNC(=O)Cn1c(C)cc2ccccc2c1=O` gave T cruzi inh -11, Calb FLC 6, Beta cell apopt 2, ALR H2O2 inh -1 and RanGTP-Imp inh inconclusive.
`c1ccc(-c2csc(N3CCSCC3)n2)cc1` gave rRNA inh HTS -27, FGF22 binding inactive, T cruzi inh -11, Calb FLC 6, ALR H2O2 inh 28, MLL AF4-AF9 inh 1.8, RanGTP-Imp inh -2.4, rRNA inh HTS OD600 -44 and rRNA inh HTS RFP -3.3.
CN(C(=O)c1ccno1)c1nnc(-c2ccccn2)s1 was read as T cruzi inh -8, Calb FLC 9, Beta cell apopt -1, ALR H2O2 inh 2 and RanGTP-Imp inh -0.9.
O=S(=O)(c1ccc2c(c1)OCCO2)N1CCN(S(=O)(=O)c2ccco2)CC1 was read as rRNA inh HTS 7, FGF22 binding inactive, Beta cell apopt -24, ALR H2O2 inh -6, MLL AF4-AF9 inh -3.7, rRNA inh HTS OD600 14 and rRNA inh HTS RFP 9.6.
CC(=O)N[C@@H](Cc1c[nH]c2ccccc12)C(=O)OCC(=O)Nc1ccc(Cl)c(S(=O)(=O)N(C)C)c1 was read as rRNA inh HTS -19, FGF22 binding inactive, T cruzi inh -10, Calb FLC -10, Beta cell apopt -11, ALR H2O2 inh 52, MLL AF4-AF9 inh 5.3, RanGTP-Imp inh 2.5, rRNA inh HTS OD600 -11 and rRNA inh HTS RFP 4.1.
For Nc1ccc2c(c1)Oc1ccccc1C=C2 the results were rRNA inh HTS -8, T cruzi inh -4, Calb FLC -8, Beta cell apopt -13, MLL AF4-AF9 inh 3.3, RanGTP-Imp inh 0.4, rRNA inh HTS OD600 -6 and rRNA inh HTS RFP -1.2.
CCOc1cccc2cc(C(=O)N3CCc4ccccc43)c(=O)oc12 was read as T cruzi inh 14, Calb FLC 25, Beta cell apopt -5, ALR H2O2 inh -8 and RanGTP-Imp inh -1.3.
`Cc1cc(C)c2c(N)c(C(=O)NN3CC(=O)N(c4ccccc4)CC3=O)sc2n1` gave rRNA inh HTS 6, FGF22 binding inactive, T cruzi inh -2, Calb FLC 9, Beta cell apopt -11, ALR H2O2 inh -10, MLL AF4-AF9 inh -2.8, RanGTP-Imp inh 7.7, rRNA inh HTS OD600 0 and rRNA inh HTS RFP 1.3.
Screening CCOc1ccc(C(C(=O)NC2CCCCC2)N(CCOC)C(=O)c2snc(C(N)=O)c2N)cc1 (stereo not drawn) returned rRNA inh HTS 4, FGF22 binding inactive, T cruzi inh 2, Calb FLC 5, Beta cell apopt -4, ALR H2O2 inh -2, MLL AF4-AF9 inh 2.1, RanGTP-Imp inh 1.3, rRNA inh HTS OD600 8 and rRNA inh HTS RFP -3.7.
`Cc1ccc2[nH]c(C(=O)O)c(NC(=O)c3ccccc3[N+](=O)[O-])c2c1` gave T cruzi inh -3, Calb FLC 5, Beta cell apopt -2, ALR H2O2 inh 32 and RanGTP-Imp inh -0.5.
COc1cc(C(=O)Nc2cccc(NC(=O)c3ccccc3)c2)cc(OC)c1OC was read as rRNA inh HTS 1, FGF22 binding inactive, T cruzi inh -15, Calb FLC -7, ALR H2O2 inh -3, MLL AF4-AF9 inh 6.5, RanGTP-Imp inh 3.2, rRNA inh HTS OD600 -3 and rRNA inh HTS RFP 2.3.
`O=C(Nc1cccc(-c2cccc(Cl)c2)c1)C1CCN(CC2CCOC2)CC1` (stereo not drawn) gave rRNA inh HTS -5, FGF22 binding inactive, T cruzi inh 24, Calb FLC -13, Beta cell apopt 9, ALR H2O2 inh -7, MLL AF4-AF9 inh 1.7, RanGTP-Imp inh 0.5, rRNA inh HTS OD600 -25 and rRNA inh HTS RFP 7.1.
`COCCCN1C(=O)C(=O)/C(=C(/O)c2ccc(OCC(C)C)cc2)C1c1cccnc1` (stereo not drawn) gave T cruzi inh -10, Calb FLC -6, Beta cell apopt -6, ALR H2O2 inh -22 and RanGTP-Imp inh -2.8.
COc1ccc([C@H]2CC(=O)C=C(c3ccc4c5c(cccc35)CC4)C2)cc1 was read as rRNA inh HTS 4, FGF22 binding inactive, Beta cell apopt -5, ALR H2O2 inh -5, MLL AF4-AF9 inh 4.2, rRNA inh HTS OD600 -1 and rRNA inh HTS RFP -9.7.
`CCOC(=O)C1CCN(CC(=O)Nc2ccc(OC)c(Cl)c2)CC1` gave rRNA inh HTS -3, FGF22 binding inactive, T cruzi inh 2, Calb FLC -2, Beta cell apopt -5, ALR H2O2 inh -5, MLL AF4-AF9 inh 0.1, RanGTP-Imp inh 1.0, rRNA inh HTS OD600 0 and rRNA inh HTS RFP 0.8.
COc1ccc(NC(=O)N2CCCC2)cc1OC was read as T cruzi inh -10, Calb FLC 31, Beta cell apopt -2, ALR H2O2 inh -26 and RanGTP-Imp inh 1.4.
`Cc1onc(-c2ccccc2)c1C(=O)Nc1cccc(OC(C)C)c1` gave T cruzi inh 6, Calb FLC 3, Beta cell apopt -5, ALR H2O2 inh 0 and RanGTP-Imp inh 1.3.
`Cc1nc(N2CCN(C(=O)c3ccco3)CC2)c2c3c(sc2n1)CCC3` gave T cruzi inh 7, Calb FLC 26, ALR H2O2 inh 0 and RanGTP-Imp inh 0.4.
COc1ccc(C(=O)CSc2nc3nc(C)cc(C)n3n2)cc1OC was read as rRNA inh HTS 4, FGF22 binding inactive, T cruzi inh 11, Calb FLC -5, Beta cell apopt 1, ALR H2O2 inh 10, MLL AF4-AF9 inh 4.6, RanGTP-Imp inh 8.1, rRNA inh HTS OD600 2 and rRNA inh HTS RFP 2.6.
Screening CC(=O)Nc1ccc(/C=N/Nc2ccc(C(=O)c3c(C)cc4ccccn34)cc2[N+](=O)[O-])cc1 returned rRNA inh HTS 9, FGF22 binding inactive, T cruzi inh 9, Calb FLC -4, Beta cell apopt 10, ALR H2O2 inh -1, MLL AF4-AF9 inh -4.5, RanGTP-Imp inh 3.4, rRNA inh HTS OD600 12 and rRNA inh HTS RFP -0.5.
For Cc1cccc(N2CCN(C(=O)c3cc(C)oc3C)CC2C)c1 (stereo not drawn) the results were rRNA inh HTS 4, FGF22 binding inactive, T cruzi inh -10, Calb FLC -4, Beta cell apopt -14, ALR H2O2 inh 58, MLL AF4-AF9 inh -1.3, RanGTP-Imp inh -2.2, rRNA inh HTS OD600 -11 and rRNA inh HTS RFP -1.6.
Screening Cn1c(-c2nonc2N)nc2ccccc21 returned rRNA inh HTS 16, FGF22 binding inactive, T cruzi inh 0, Calb FLC 3, Beta cell apopt 15, ALR H2O2 inh -19, MLL AF4-AF9 inh 0.8, RanGTP-Imp inh -0.9, rRNA inh HTS OD600 5 and rRNA inh HTS RFP 7.4.
Cc1cc(Cl)ccc1N=C1N=C(N)c2ccccc21 was read as rRNA inh HTS 11, FGF22 binding inactive, T cruzi inh 4, Calb FLC 12, Beta cell apopt 1, ALR H2O2 inh 16, MLL AF4-AF9 inh 7.5, RanGTP-Imp inh -2.7, rRNA inh HTS OD600 -5 and rRNA inh HTS RFP -1.6.
